# Compound activity as filed in PubChem.
# NPYLR7 ag – agonists of mosquito NPYLR7 receptor, primary screen, cell-based, Aedes aegypti, calcium fluorescence, mosquito biting behavior | Aedes aegypti neuropeptide Y-like receptor 7 (NPYLR7) | AID 1259423, 2018 | activation, % at 10 µM | HEK293T NPYLR7/Galpha15, GCaMP6s calcium fluorescence | actives 0.15% (n = 270,000); in the data active = activation above about 40%;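 note: 0% = vehicle and 100% = reference agonist at the receptor; some compounds past the cut are filed as inactive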
# NPYLR7 ag max-min – recorded beside NPYLR7 ag, whose call it bears; activation, %; measured here: Max-Min RFU normalised activation; some inactives read as strong as hits;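 span of the calcium signal over five minutes; 0% = vehicle and 100% = native peptide agonist; compound fluorescence can raise it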
# * = called active by the depositor; & = joins results of further samples; ! = a repeat was not active.
Molecule	NPYLR7 ag	NPYLR7 ag max-min
Cc1ccsc1CN(CCc1c[nH]c2ccccc12)Cc1nc(C(=O)NCC2CCCO2)co1 (stereo not drawn)	11	5
Nc1nc(Sc2ccccc2)cc(N2CCC3(CCNCC3)C2)n1	2	-3
CCOc1ccc(-c2cc(C(=O)NC(C)Cc3ccc(Cl)cc3)c3ccccc3n2)cc1 (stereo not drawn)	-6	-9
COc1ccc(-n2c(SCCCC(=O)N3CCN(C(=O)c4ccccc4Br)C(C)C3)nnc2-c2ccccc2)cc1 (stereo not drawn)	1	7
CSCc1ccc(C(=O)N(C)C2CCCN(CCCc3ccccc3)C2)o1 (stereo not drawn)	2	-2
O=C(C1=Cc2ccccc2OC1)N1CCN(S(=O)(=O)c2ccccc2F)CC1	-1	4
CC(C)NC(=O)Cn1nc2n(Cc3ccccc3)c(=O)c3ccc(C(=O)NC(C)C)cc3n2c1=O	-3	-9
Cc1ccc(N2C(=O)CC(NCc3ccc(S(N)(=O)=O)cc3)C2=O)cc1Cl (stereo not drawn)	4	1
COc1ccc(CN(C)C(=O)Cn2nnnc2CN2CCOCC2)c2cccnc12	-4	-8
COc1ccc(S(=O)(=O)N2CCOCC2)cc1N1CCN(S(=O)(=O)c2c(F)cccc2F)CC1	25	23
COCC(C)NC(=O)C1CCN(Cc2cn[nH]c2-c2ccc(F)cc2)CC1 (stereo not drawn)	0	-4
Cc1ccc(-c2[nH]ncc2CN2CCC(C(O)CCc3ccccc3)CC2)cc1C (stereo not drawn)	3	2
CN(Cc1ccccc1)C(=O)C1(C)CCN1C(=O)CCc1cccs1 (stereo not drawn)	5	3
CCc1ocnc1C(=O)N(C)Cc1ccccc1OCC(C)C	-5	-9
COc1cccc(-c2n[nH]c(=S)c3nc(C)sc23)c1	-4	-3
COCc1ccc(CNC(=O)C(=O)Nc2ccc(N(C)C)nc2)cc1	5	-1
CC1(C)C[C@H](NC2CCC2)[C@@]2(CCC(=O)NCCN3CCOCC3)CC[C@](C)(O)C[C@@H]12	-8	-15
CCCCN(C(C)=O)c1c(CC)nc2ccc(C(=O)N3CCCC(C(N)=O)C3)cn12 (stereo not drawn)	-11	-17
COc1cccc(C=NNC(=O)c2cc(-c3cccs3)[nH]n2)c1O	13	9
CCCCC(CC)CNC(=O)C(=O)NC1CC1 (stereo not drawn)	22	18
CCOC(=O)C1(C)CCCCN1C(=O)c1ccc(C(=O)OC)cc1 (stereo not drawn)	-1	-2
CCC(=O)N1CCC1(C)C(=O)Nc1ccc(C)c(C)c1 (stereo not drawn)	6	3
OC1(c2cccc(C(F)(F)F)c2)CCN(Cc2ccsc2)CC1	-6	-5
CCC(O)(CC)c1ccc(CN(CCOC)Cc2ccccc2OC)o1	-1	-1
Cc1cc(-c2ccnc(-n3ncc(C(=O)N(C)Cc4csc(C)n4)c3C)n2)c(C)s1	27	14
C=CCN(CC(=O)N(CCc1ccc(OC)c(OC)c1)Cc1ccc(C)o1)C(=O)NCC	17	24
CSCCC1NC(=S)N(c2cccc(N3CCOC3=O)c2)C1=O (stereo not drawn)	-1	-3
N#Cc1c(SCC(N)=O)nc(=O)n2nc3n(c12)CCCCC3	-5	-4
CCOc1ccc(C2CCCN2S(=O)(=O)c2ccc(C(C)=O)cc2)cc1 (stereo not drawn)	5	3
CC(=O)c1c(C)[nH]c(C(=O)Cn2cc(Br)ccc2=O)c1C	3	13
Cc1cccn2c(=O)c(C=C3C(=O)NC(=S)NC3=O)c(N3CCCC3)nc12	-23	-29
Cc1nc(NCCc2nnc3n2CCCCC3)c2c3c(sc2n1)CCC3	-7	-8
COc1ccc(C2Nc3ccccc3C(=O)N2c2ccc(F)cc2)cc1Cn1nc(C)c([N+](=O)[O-])c1C (stereo not drawn)	-7	-5
Cc1cc(NC(=O)C(C)Sc2nncn2-c2ccccc2C)on1 (stereo not drawn)	1	18
O=C(COc1ccc(Cl)cc1)NNC(=O)c1ccc(=O)n(Cc2ccc(Cl)cc2)c1	-11	-19
NC(=O)NCCCCCC(=O)O	15	10
CCCSCC(=O)NCc1nnc(C(C)C)s1	3	1
COc1cccc(C=NNc2nc(-c3ccccc3)c(C)s2)c1OC	1	0
O=C(c1ccnc(-n2cnnc2)c1)N1CCOC(CCCc2ccccc2)C1 (stereo not drawn)	8	2
O=C(CCn1ccc(=O)[nH]c1=O)OCc1cc(-c2cccs2)on1	-1	-3

# Sorted by molecular weight (low to high): 20 of the compounds above.
Molecule	NPYLR7 ag	NPYLR7 ag max-min
CCCSCC(=O)NCc1nnc(C(C)C)s1	3	1
CCC(=O)N1CCC1(C)C(=O)Nc1ccc(C)c(C)c1 (stereo not drawn)	6	3
CCOC(=O)C1(C)CCCCN1C(=O)c1ccc(C(=O)OC)cc1 (stereo not drawn)	-1	-2
Nc1nc(Sc2ccccc2)cc(N2CCC3(CCNCC3)C2)n1	2	-3
COCc1ccc(CNC(=O)C(=O)Nc2ccc(N(C)C)nc2)cc1	5	-1
O=C(CCn1ccc(=O)[nH]c1=O)OCc1cc(-c2cccs2)on1	-1	-3
CC(=O)c1c(C)[nH]c(C(=O)Cn2cc(Br)ccc2=O)c1C	3	13
CN(Cc1ccccc1)C(=O)C1(C)CCN1C(=O)CCc1cccs1 (stereo not drawn)	5	3
CCC(O)(CC)c1ccc(CN(CCOC)Cc2ccccc2OC)o1	-1	-1
COCC(C)NC(=O)C1CCN(Cc2cn[nH]c2-c2ccc(F)cc2)CC1 (stereo not drawn)	0	-4
O=C(c1ccnc(-n2cnnc2)c1)N1CCOC(CCCc2ccccc2)C1 (stereo not drawn)	8	2
Cc1cccn2c(=O)c(C=C3C(=O)NC(=S)NC3=O)c(N3CCCC3)nc12	-23	-29
Cc1ccc(-c2[nH]ncc2CN2CCC(C(O)CCc3ccccc3)CC2)cc1C (stereo not drawn)	3	2
COc1ccc(CN(C)C(=O)Cn2nnnc2CN2CCOCC2)c2cccnc12	-4	-8
Cc1cc(-c2ccnc(-n3ncc(C(=O)N(C)Cc4csc(C)n4)c3C)n2)c(C)s1	27	14
O=C(COc1ccc(Cl)cc1)NNC(=O)c1ccc(=O)n(Cc2ccc(Cl)cc2)c1	-11	-19
CC(C)NC(=O)Cn1nc2n(Cc3ccccc3)c(=O)c3ccc(C(=O)NC(C)C)cc3n2c1=O	-3	-9
Cc1ccsc1CN(CCc1c[nH]c2ccccc12)Cc1nc(C(=O)NCC2CCCO2)co1 (stereo not drawn)	11	5
COc1ccc(S(=O)(=O)N2CCOCC2)cc1N1CCN(S(=O)(=O)c2c(F)cccc2F)CC1	25	23
COc1ccc(-n2c(SCCCC(=O)N3CCN(C(=O)c4ccccc4Br)C(C)C3)nnc2-c2ccccc2)cc1 (stereo not drawn)	1	7

# The list continues.
Molecule	NPYLR7 ag	NPYLR7 ag max-min
COc1cc([N+](=O)[O-])cc2sc(NC(=O)C(C)C)nc12	-4	-5
Cc1ccc(S(=O)(=O)N2CCC(NC(=O)COc3cccc(C)c3C)CC2)cc1	6	11
CCN(CCN1CCCC1)C(=O)c1cccc2cnccc12	1	-18
Cc1nc2nc(S(=O)(=O)NCCC(C)C)nn2c(C)c1C	6	4
CCC(CC)NC(=O)CN1c2cccc3cccc(c23)S1(=O)=O	13&51	13&36
O=C(C(NC1COc2ccccc21)c1ccccc1)N1CCCCC1 (stereo not drawn)	-7	-11
Cc1ccccc1S(=O)(=O)NCC1CCN(Cc2nccn2C)C1 (stereo not drawn)	-3	-4
O=C(Cn1nc(-c2ccco2)c2sc(N3CCCC3)nc2c1=O)Nc1ccc2c(c1)OCO2	0	-3
COCCOc1nc(-c2ccco2)n(-c2cccc(NC(=O)c3ccccc3F)c2)n1	24	38
COc1ccc(C2Oc3ccccc3C3CC(c4ccc5c(c4)OCCO5)=NN32)cc1OC (stereo not drawn)	4	3
CC(C)c1[nH]nc2c1C(C1CCN(C(C)C)CC1)CC(=O)N2 (stereo not drawn)	2	0
O=C(Cn1cc(C(=O)N2CCCC2)cn1)NCc1ccc(Cl)cc1	6	-2
O=C(CC1=CCCCC1)N1CCOc2ccc(CN3CCN(c4ncccn4)CC3)cc2C1	1	-4
O=C(NC1CC1)C1CNCCN1C(=O)CCn1cc(Cl)cn1 (stereo not drawn)	2	0
Clc1nc(N2CCOCC2)nc(N2CCSCC2)n1	8	2
COCC(=O)N1CCSC12C(=O)N(Cc1cccc(C#N)c1)c1ccc(F)cc12 (stereo not drawn)	2	10
COCc1cc(=O)n(CC(=O)NC(c2ccccc2)c2ccc(Cl)cc2)cn1 (stereo not drawn)	-1	0
COc1ccc(N2CCN(CN3CC(=O)N(C(C)C)C3=O)CC2)cc1	-1	11
COc1cccc(CCc2ccccc2C(=O)NCC2(O)CCNC2)c1 (stereo not drawn)	-3	-8
CCOC(=O)c1cc2c(n(-c3ccccc3)c1=O)CCCC2=O	-2	-3
CN(Cc1ccccc1)C(=O)c1cnn2c1NC(c1cccs1)CC2C(F)(F)F (stereo not drawn)	-8	-9
c1cnn(CC2CN(CCCOc3ccc4c(c3)OCO4)CCO2)c1 (stereo not drawn)	-9	-12
O=C(COc1ccccc1)N1CCCC(CNS(=O)(=O)c2cccs2)C1 (stereo not drawn)	57*!	55*!
O=C(c1cn[nH]n1)N1CCN(c2ccccn2)CC1	-3	-12
CCN(CC(=O)Nc1cc(-c2ccccc2)nn1-c1ccc(F)cc1)C(=O)Nc1cccc(Cl)c1Cl	20	20
O=C(NC1CCc2ccccc21)C1=CN2CCN(Cc3ccccc3)C(=O)N=C2O1 (stereo not drawn)	-3	-5
Clc1cccc(Nc2nnc(-c3ccccc3)c3ccccc23)c1	-12	-17
O=C(c1cc2ccc(Cl)cc2[nH]1)N1CCN(S(=O)(=O)N2CCCCCC2)CC1	10	9
CCOCCNC(=O)CSc1nc2cc(C(=O)OCC)ccc2n1CCOC	3	3
CCC(C(=O)Nc1cc(C(C)(C)C)nn1-c1ccc(C#N)cc1)c1ccccc1 (stereo not drawn)	3	14
CCOc1ccccc1N1C(=O)C2CC(C)=C(C)CC2C1=O (stereo not drawn)	8	12
O=C(O)CCN1CCCCO1	-1	-9
O=C(Cn1cnc2c(nnn2Cc2ccccc2F)c1=O)NCc1ccc2c(c1)OCO2	7	10
O=C(c1ccc(F)cc1)N1CCC[C@H](c2nc(-c3ccc(F)cc3)no2)C1	-1	-12
Fc1ccc(C2CCCN2Cc2cnc(-c3ccco3)nc2)cc1 (stereo not drawn)	-7	-7
CC(C)=NOC1NC(Br)=C(C#N)C(C#N)(C(N)=O)C1(C)C (stereo not drawn)	2	30
Cc1ccnc(C(C2CC2)n2cnc3sc4c(c3c2=O)CCNC4)c1 (stereo not drawn)	-6	-15
CCCCc1ccc(S(=O)(=O)NC(=O)C2(C)CCN2C(=O)c2c(C)noc2C)cc1 (stereo not drawn)	2	2
CC(C)CN=C(NC(=O)c1ccccc1)OC(C)C	3	-4
COc1ccc(C(=O)C2CCCN(Cc3nc4c(s3)CCCC4)C2)c(OC)c1 (stereo not drawn)	-2	-1

# The results go on.
# Fields: NPYLR7 ag	NPYLR7 ag max-min
COC(=O)C(c1ccccc1F)C1C=CC(NC(=O)c2cc(F)ccc2Cl)C1 (stereo not drawn)
    1	-3
O=C(Nc1ccc2c(c1)OCO2)C1CCN(C(=O)COc2cccc(F)c2)CC1
    -3	-3
COc1ccc(CN2CCCn3cccc3C2c2ccc(F)cc2F)c(OC)c1OC (stereo not drawn)
    8	13
COc1ccc(Br)c(Cn2c(C)c(C(=O)NCc3cccs3)sc2=O)c1
    11	3
CCc1nc(C)c(C(=O)Nc2ccc(OC)c(NC(=O)c3ccccc3)c2)o1
    8	4
CC(=O)N1C=Cc2c[nH]cc2C(C)=N1
    0	-2
CCc1nc2n(n1)C(=O)C(C(c1ccccc1)N1CCN(CCO)CC1)S2 (stereo not drawn)
    -3	-9
COc1ccc(N2CC(NC(=O)Nc3ccon3)CC2=O)cc1 (stereo not drawn)
    6	3
CC(C)Oc1ccc(C(F)(F)F)cc1N
    -2	-4
O=C(CSc1ccc(-c2ccncc2)nn1)N1CCN(c2ccccc2)CC1
    11	0
O=S(=O)(c1ccc(F)cc1)N1CCNCC1
    2	8
CC(=O)NC1=NN(C(C)=O)C2(S1)C(=O)N(CCOc1ccccc1Cl)c1ccccc12 (stereo not drawn)
    1	1
NC(=O)c1cccc(OCCC(=O)NCc2ccc3c(c2)CCC3)c1
    3	-1
O=C(Nc1ccc(Cl)cc1)C(=O)NC(CCO)c1ccccc1 (stereo not drawn)
    2	1
CCc1ccccc1NC(=O)CSc1nnc(CCn2ccc(=O)[nH]c2=O)o1
    0	-1
CCOc1ccc(N2C(=O)C3C(c4ccccc4)C=CC(c4ccccc4)C3C2=O)cc1 (stereo not drawn)
    4	1
COCCN(CC(=O)Nc1nc(CC(=O)N2CCc3ccccc3C2)cs1)C(=O)c1ccc(Cl)cc1Cl
    -6	-3
CCSc1nnc(NC(=O)c2ccccc2)s1
    -9	-13
Cc1ccc(C(=O)ON=C2CCN(C)CC2)cc1
    4	5
FC(F)(F)c1ccc(CCC2CCN(Cc3ccc4ccccc4c3)CC2)cc1
    4	4
Cc1ccc(OS(=O)(=O)c2cn(C)c(=O)n(C)c2=O)cc1C
    -1	-2
CC(C(=O)N1CC(=O)Nc2ccccc21)N1CCCC1c1cccn1C (stereo not drawn)
    -12	-15
Cc1cc(-c2nnc(NC(=O)CCCS(=O)(=O)c3ccc(F)cc3)o2)nn1C
    -7	-13
N#CC1=C(O)C(=O)N(Cc2ccccc2)C1
    10	3
CC(C)OCc1c(C(=O)OC2CC(C)OC2=O)oc2ccccc12 (stereo not drawn)
    3	2
O=C(c1cnn(-c2ccc(Cl)cc2)c1-c1ccccc1)N1CCOCC1
    0	5
CCOC(=O)n1c(SCC)nc2ccccc21
    -4	-8
C=C[C@@H](C1=CC(=O)C(OC)=C(OC)C1=O)c1ccccc1
    -1&1	-5&2

# This is a subset; the hit share may differ from the screen's.
